Screens as filed in PubChem BioAssay.
YopH inh: blocks Yersinia enterocolitica YopH tyrosine phosphatase; fluorescence Ex485/Em525; inhibition, %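 (about 10 µM by stock and volumes)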; hit rate 0.16% among 140,000; AID 898;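 active means inhibition of 50% or more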;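 further: controls were vehicle for no effect and minimum signal wells for full effect; inactives centre near -20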
Mtb growth: M. tuberculosis H37Rv growth inhibitors, H37Rv strain (AID 1626) | M. tuberculosis H37Rv growth inhibition; higher % means a stronger effect | hit rate 0.95% among 220,000 | inhibition, % at 10 µM; hits with a dose series show IC50 in µM;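 active means confirmed in a dose series; inconclusive means inhibition above 80% but not taken into the dose series; inactive means below 80% or under 30% at every dose of the series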;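 further: bacteria incubated seven days before Alamar blue readout; 0% = bacteria only wells and 100% = bacteria with antibiotic wells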
Arbovirus inh: antivirals against arbovirus infection | arbovirus infection cell-based antiviral screen | inhibition, % at 10 µM | hit rate 0.37% among 200,000 | AID 1251;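 active means inhibition from about 30%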;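 further: bluetongue infection of BSR cells; cell survival read as ATP light after 72 h; 0% = infected wells without compound and 100% = uninfected wells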
Mtb betalactam: beta-lactam sensitization of Mtb H37Rv | hit rate 0.27% among 330,000 | M. tuberculosis H37Rv growth with meropenem, percent inhibition; hits of this screen are not shown here | inhibition, % at 25 µM | AID 434955;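 active means about 74% or more and at least 40 points above the plate without the antibiotic, then above 30% in a dose series; inconclusive means first-round hits that could not be retested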;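 further: growth measured after seven days incubation then overnight dye step; 0% = bacteria only wells and 100% = bacteria with antibiotic; twin plates without the antibiotic show which effects depend on it; some results filed as inactive read as strong as hits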
RecA intein inh: blocks M. tuberculosis RecA intein splicing; P9WHJ3; hit rate 0.75% among 290,000; inhibition, %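 (about 9 µM by stock and volumes)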; cell-free RecA intein splicing, fluorescence; AID 2221; in the data active means inhibition above about 30%; inconclusive means no clear call, values can overlap the other calls;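 further: 0% = vehicle wells and 100% = reference inhibitor control wells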
Target sequence (P9WHJ3 whole entry, looked up): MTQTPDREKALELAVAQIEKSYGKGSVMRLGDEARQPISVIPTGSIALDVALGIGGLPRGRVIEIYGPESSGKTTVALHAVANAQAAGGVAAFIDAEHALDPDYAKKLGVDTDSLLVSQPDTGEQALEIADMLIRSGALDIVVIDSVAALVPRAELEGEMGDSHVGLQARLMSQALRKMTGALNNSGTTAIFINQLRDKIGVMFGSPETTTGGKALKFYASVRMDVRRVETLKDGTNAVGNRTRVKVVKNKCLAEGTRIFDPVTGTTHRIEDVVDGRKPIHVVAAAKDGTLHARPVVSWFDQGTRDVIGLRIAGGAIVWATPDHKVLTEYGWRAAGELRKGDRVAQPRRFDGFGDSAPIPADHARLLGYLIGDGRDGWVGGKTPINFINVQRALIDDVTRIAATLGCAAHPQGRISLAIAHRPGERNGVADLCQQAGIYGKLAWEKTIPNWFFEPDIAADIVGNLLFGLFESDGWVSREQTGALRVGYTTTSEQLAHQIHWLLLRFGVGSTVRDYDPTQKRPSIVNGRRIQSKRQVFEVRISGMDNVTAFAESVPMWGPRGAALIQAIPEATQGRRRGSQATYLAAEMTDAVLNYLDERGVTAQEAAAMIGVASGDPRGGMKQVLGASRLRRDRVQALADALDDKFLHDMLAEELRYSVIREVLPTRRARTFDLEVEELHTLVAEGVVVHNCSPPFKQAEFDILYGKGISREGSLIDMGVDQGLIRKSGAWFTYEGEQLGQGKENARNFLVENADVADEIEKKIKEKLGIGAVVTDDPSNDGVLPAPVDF
* = called active by the depositor; ? = inconclusive; / = no result given. A portion of the library; rates above refer to the full screens.

Value order – Arbovirus inh, YopH inh, Mtb growth, Mtb betalactam, RecA intein inh
CCCOc1cccc(C2/C(=C(/O)c3ccc(F)cc3)C(=O)C(=O)N2CCN(C)C)c1 (stereo not given)
    -1, -45, -8%, -10, -0.7
CCS(=O)(=O)CCSc1nc2ccccc2s1
    -1, -15, -6%, -5, -1.9
FC(F)(F)c1ccc(Cl)c(-n2c(-c3ccco3)n[nH]c2=S)c1
    /, /, /, -7, -0.1
c1cc(-c2nnc3n2CCCCC3)ccn1
    12, -17, -3%, 11, 1.7
CC(C)CNC(=O)CSc1nnc(-c2ccccn2)n1Cc1ccccc1
    5, -31, -10%, -3, 0.4
Cc1ccc(OCC(=O)NNC(=O)Cc2ccc(S(=O)(=O)N3CCOCC3)s2)cc1
    /, /, /, -4, 13
CCOC(=O)CC1C(=O)NCCN1C(=S)NC(=O)c1ccccc1OC (stereo not given)
    /, /, /, -17, -0.4
Nc1ccc(SCCN2C(=O)c3ccccc3C2=O)cc1
    -4, -32, -7%, 2, -11
CCOC(=O)[C@@H]1[C@H]2COc3ccccc3[C@@H]2N2C(=O)N(c3cccc(F)c3)C(=O)[C@]12C
    /, /, -18%, 1, 1.3
CCC(=O)Oc1cccc(C(=O)Nc2ccc(-c3nnc(-c4ccco4)o3)cc2)c1
    -3, -4, 7%, -1, 0.9
COC(=O)[C@@H]1C[C@@H]2CC[C@@H](O)C[C@@H]2N1Cc1ccccc1OS(=O)(=O)c1ccc(C)cc1
    /, /, -2%, -1, 1.0
Cc1ccc2cc(/C=N/NC(=O)c3ccccc3O)c(Cl)nc2c1
    0, -15, 3%, 5, -2.0
CN(C)C(=O)c1cc(C(=O)c2ccccc2Cl)c[nH]1
    2, /, 1%, -13, -7.7
CCN(CC)c1ccc(NC(=O)CSc2n[nH]c(-c3ccco3)n2)cc1
    /, /, /, 14, -1.8
CCCC(=O)Nc1nc(-c2ccccc2)ns1
    16, -18, 9%, /, 1.5
COc1ccc(NC(=O)C2CCCN(S(=O)(=O)c3c(C)[nH]c(=O)[nH]c3=O)C2)cc1Cl (stereo not given)
    7, /, 3%, -5, -0.1
COc1cc(CN2CCNC(=O)C2CC(=O)NCc2csc(C(C)C)n2)cc(OC)c1 (stereo not given)
    -1, /, -9%, -3, -1.4
O=C(NCc1ccccc1)c1onc(CSc2ccncc2)c1C(=O)NCc1ccccc1
    /, /, 1%, 3, -1.7
O=C(CC1C(=O)NCCN1Cc1ccc(-c2ccccc2)cc1)NCc1ccccc1 (stereo not given)
    2, /, 7%, 6, 9.5
CC(C)(C)c1nnc(N/N=C/c2ccc(Br)cc2)n(N)c1=O
    17, 0, 8%, 9, -7.5
CSc1ccccc1Nc1ncnc(N)n1
    /, /, 0%, 5, /
COc1cccc(NC(=O)Nc2cccn(Cc3ccccc3)c2=O)c1
    3, -48, -10%, -3, 3.4
COc1ccccc1NC(=O)c1cnc(SCC(=O)NCC2CCCO2)n(C)c1=O (stereo not given)
    /, /, /, 79, 45*
Cc1ccc(-n2nc3c(=O)n(CC(=O)NCc4ccccc4Cl)nc(C)c3c2C)cc1
    /, /, /, -4, -1.5
C=C(C)c1cccc(C(C)(C)NC(=O)N2CCCC(C)C2)c1 (stereo not given)
    -8, -16, 2%, 5, 2.0
CC1=NN(c2ccc(Cl)cc2)C(=O)/C1=C\c1cccn1-c1ccc(S(N)(=O)=O)cc1
    11, -49, -2%, -8, 1.0
COc1ccc(C(=O)Nc2nc(C)cc(C)n2)cc1
    -5, /, 3%, -11, -2.5
Cc1cccc(OCc2nnc(SCC(=O)Nc3cccc(C(=O)N4CCOCC4)c3)n2C)c1C
    5, -18, -7%, -9, 0.7
Cc1nn(C)cc1CN(C)C(=O)c1cc(-c2ccccc2)nc2ccc(Br)cc12
    -19, /, -7%, -5, -2.9
O=[N+]([O-])c1ccccc1CN1CCN(Cc2c[nH]c3ccccc23)CC1
    -17, /, -8%, -4, 4.2
O=C(NNC(=S)Nc1ccc(F)cc1)C1[C@H]2CCCC[C@@H]12 (stereo not given in full)
    /, /, -5%, -3, /
CCN(Cc1ccccc1)C(=O)COc1ccccc1
    /, /, /, 0, 4.0
O=C(CSc1ccc2nnc(-c3ccccn3)n2n1)NCc1ccco1
    1, -38, 0%, 4, 2.4
Cc1ccc(S(=O)(=O)N2CCOCC2)cc1C(=O)OCc1nnc(-c2ccccc2)o1
    /, /, /, -11, 1.4
O=C(/C=C/C=C/c1ccccc1)CC1(O)C(=O)N(CCc2ccccc2)c2ccccc21 (stereo not given)
    -46, -33, /, -10, 10
O=C(N/N=C/c1ccncc1)c1ccccc1[N+](=O)[O-]
    6, /, 5%, 4, -2.4
CCC(c1nnnn1Cc1ccco1)N(CCc1ccccc1)Cc1cc2cc(C)ccc2[nH]c1=O (stereo not given)
    /, /, 12%, 10, 12
CC(C)(C)c1ccccc1NC(=O)c1cccnc1
    4, -20, -5%, ?, 2.1
C=CCn1c(SC(C)C(N)=O)nc2sc(CC)cc2c1=O (stereo not given)
    32*, /, 3%, 1, -0.7
Oc1cccc(/C=N/Nc2ccc(Cl)nn2)c1O
    /, /, /, 90, -6.1
C=CCc1ccccc1OCC(O)CNC(C)C (stereo not given)
    0, -36, 3%, 0, -38
COc1ccccc1NC(=O)c1cc(C(=O)Nc2ccccc2OC)cc([N+](=O)[O-])c1
    /, /, /, -2, 0.2
Cc1cc(S(=O)(=O)N2CCN=C2c2ccccc2)c(Cl)cc1Cl
    -3, -11, 2%, 5, -5.3
Cc1ccccc1OCCSc1nnc(-c2ccncc2)n1C
    -20, -5, -5%, 1, -0.6
S=C(NCCN1CCOCC1)N/N=C/c1ccccc1
    -2, -29, -11%, -10, /
O=C(COc1ncnc2ccccc12)Nc1ccc(Cl)c([N+](=O)[O-])c1
    1, -34, 6%, 5, -1.1
Cc1cc(NC(=O)Nc2cc(C)nn2-c2ccccc2)n(-c2ccccc2)n1
    -2, -46, -2%, -7, 3.5
COc1ccc(C(=O)NCc2nnc(SCC(=O)c3ccccc3)n2C)cc1OC
    /, /, /, -3, 0.6
CCc1ccccc1NC(=O)COc1ccc2oc(-c3ccc(OC)cc3)cc(=O)c2c1
    2, -36, -18%, 2, -1.3
CC(C)c1ccc(C(CC(=O)O)NC(=O)c2cccs2)cc1 (stereo not given)
    1, /, 3%, 2, 3.4
O=C(CN1CCCCCC1)Nc1ccccc1Oc1ccccc1
    2, /, 7%, 2, 2.7
COc1ccc(S(=O)(=O)N2CCCOC2CNC(=O)C(=O)NCCCn2ccnc2)cc1OC (stereo not given)
    -2, /, 5%, -3, -1.3
CCOCCCNC(=O)C(c1ccccc1)N(Cc1cccs1)C(=O)CNC(C)=O (stereo not given)
    -5, -23, -9%, -6, -2.7
O=C(CC1CCS(=O)(=O)C1)Nc1ccc[nH]c1=O (stereo not given)
    -1, -27, -4%, 4, 4.3
O=C(Nc1cccc(C2OCCCO2)c1)c1cccs1
    3, -33, 6%, 6, 3.4
CN1c2ccsc2/C(=N/Nc2ccccc2)CS1(=O)=O
    -18, /, ?, 92, 3.6
CC(=O)Oc1ccc(N2C(=O)c3cccc4c([N+](=O)[O-])ccc(c34)C2=O)cc1
    /, /, /, 100, -46
CCn1c(SCC(=O)N(C)C)nc2cc(S(=O)(=O)N3CCOCC3)ccc21
    /, /, /, -6, 1.7
Cc1ccc2c(c1)C(c1ccccc1)N(C(=O)c1ccc3c(c1)OCO3)CC(=O)N2 (stereo not given)
    /, /, /, 4, -0.2
O=C(c1noc2c1CCCC2)N1CCOCC1
    -4, -38, -2%, -8, 0.5

Whole records as entered above. Order of values: Arbovirus inh, YopH inh, Mtb growth, Mtb betalactam, RecA intein inh
`CC(=O)Oc1ccc(N2C(=O)c3cccc4c([N+](=O)[O-])ccc(c34)C2=O)cc1` is listed as /, /, /, 100, -46
`COc1ccccc1NC(=O)c1cc(C(=O)Nc2ccccc2OC)cc([N+](=O)[O-])c1` is listed as /, /, /, -2, 0.2

(further entries)
Value order – Arbovirus inh, YopH inh, Mtb growth, Mtb betalactam, RecA intein inh
CCC(SC1=N/C(=C/c2ccccc2)C(=O)N1c1ccccc1)C(=O)Nc1cc(C)on1 (stereo not given)
    -4, -3, 7%, 6, -8.1
OC1(C2(O)CC(c3ccccc3)ON2)CCCCC1 (stereo not given)
    6, -31, -3%, 14, -4.2
Cc1ccc(-c2n[nH]c(=O)c3ccccc23)cc1S(=O)(=O)NCC1CCCO1 (stereo not given)
    /, /, /, 5, -5.6
COC(=O)c1ccccc1-c1ccc(/C=C2\C(=O)N(c3ccccc3)N=C2c2ccccc2)o1
    -15, -32, 11%, -5, 2.6
CCOC(=O)CN1C(=O)N[C@H](c2ccc(Br)cc2)C(C(C)=O)=C1C
    9, -4, -8%, -3, 2.0
CCOC(=O)N1CCN(C(=O)C2CCC(=O)N(CCCc3ccccc3)C2)CC1 (stereo not given)
    /, /, /, -4, -0.8
O=C(NCc1cccs1)C1CCN(S(=O)(=O)c2cccs2)CC1
    3, -23, -14%, -5, -1.5
CC(=O)C(C)Oc1cc(C)cc2oc(=O)c(C)c(C)c12 (stereo not given)
    -1, -40, -8%, -10, 1.4
O=C(Nc1cccc(S(=O)(=O)N2CCCCC2)c1)c1ccccc1NS(=O)(=O)c1ccc(F)cc1
    -8, -21, -23%, -2, 8.1
COc1ccccc1CCNC(=O)Cc1cccs1
    /, /, 5%, 5, 1.7
COCCNC(=S)N1CCN(c2cccc(C(F)(F)F)c2)CC1
    -6, /, -6%, -6, -5.0
CCn1cc(CN2CCCC(CNC(=O)COc3ccccc3OC)C2)c(C)n1 (stereo not given)
    /, /, /, -3, 1.7
COc1cccc(CNC(=O)CCc2ccc(OC)c(OC)c2)c1
    /, /, /, -6, 1.1
Cc1noc(C)c1C(=O)N(CC(=O)NC1CCCC1)Cc1ccccc1F
    11, -31, -6%, 13, -1.7
COc1c(F)c(F)c(C(=O)Nc2ccc(N3CCN(Cc4ccccc4)CC3)cc2)c(F)c1F
    -10, -12, 36µM*, 99, 1.0
N#Cc1ccsc1NC(=O)CSc1ncn[nH]1
    9, -56, 0%, -7, 2.8
C/C(=N\NC(=S)NCCc1ccccc1)c1ccc(Cl)cc1
    8, -17, 9%, 57, 1.2
CCOc1ccc(NC2OCC(O)C(O)C2O)c([N+](=O)[O-])c1 (stereo not given)
    0, /, -1%, -2, -1.0
COc1ccc(NC(=O)CCNS(=O)(=O)c2cccc3nsnc23)cc1OC
    0, -25, -6%, 0, -0.2
CC(NC(=O)c1ccccc1)C(=O)N/N=C/c1ccccc1 (stereo not given)
    0, /, 6%, -1, -1.5
COc1ccccc1N1CCN(C(=O)C(F)F)CC1
    0, 0, 0%, 5, 1.6
COc1ccc(C)cc1NC(=O)C1CCCN(S(=O)(=O)c2cccc3cccnc23)C1 (stereo not given)
    /, /, /, ?, 1.1
CCCC(=O)NC(=S)Nc1ccc(S(=O)(=O)Nc2ccc(OCC)cc2)cc1
    11, -43, 13%, 15, 3.1
O=c1cc(O)c2sc(Nc3ccc(Cl)c(F)c3)nc2[nH]1
    /, /, /, -10, -0.1
Cc1cc(OCc2cc(C(=O)N(C)Cc3nonc3C)no2)cc(C)c1Cl
    /, /, /, 24, 12
CCCCOc1ccc(/C=C2/Sc3ccccc3C2=O)cc1
    1, -21, 1%, 2, 3.4
CN1/C(=C\C(=O)CSc2nncn2C)C(C)(C)c2ccccc21
    15, -23, 3%, 8, -0.7
O=C(C1CC1)N1CCN(Cc2ccccc2)CC1
    /, /, /, 0, 3.4
Cc1ccc(-n2nc3c(=O)n(CCCC(=O)NCc4ccccc4C)nc(C)c3c2C)cc1
    /, /, /, -3, -2.0
Cc1ccc(-c2ccc(CO)o2)cc1N
    0, /, -6%, -4, -1.2
O=C1CN(C(=S)Nc2ccccc2Cl)CCN1
    28, /, -9%, -4, 0.0
COc1cc2c(C(=O)O)c(C)n(-c3ccccc3)c2c2ccccc12
    /, /, 7%, 18, -4.3
CC1CCN(C(=O)C2CCCN(S(=O)(=O)c3cccc4nsnc34)C2)CC1 (stereo not given)
    /, /, /, -6, 5.6
CSc1ccc(/C=C/C(=O)Nc2ccccc2)cc1
    -6, /, 34%, 76, 1.1
COc1cc(NC(=O)CCc2c(C)[nH]c(=O)c(C#N)c2C)cc(OC)c1
    /, /, /, -1, -1.3

Four entries from above, arranged by molar mass, lowest first:
Value order – Arbovirus inh, YopH inh, Mtb growth, Mtb betalactam, RecA intein inh
O=C(CC1CCS(=O)(=O)C1)Nc1ccc[nH]c1=O (stereo not given)
    -1, -27, -4%, 4, 4.3
Nc1ccc(SCCN2C(=O)c3ccccc3C2=O)cc1
    -4, -32, -7%, 2, -11
COc1cc(CN2CCNC(=O)C2CC(=O)NCc2csc(C(C)C)n2)cc(OC)c1 (stereo not given)
    -1, /, -9%, -3, -1.4
COc1c(F)c(F)c(C(=O)Nc2ccc(N3CCN(Cc4ccccc4)CC3)cc2)c(F)c1F
    -10, -12, 36µM*, 99, 1.0
